Bioassay records (PubChem)
Vaccinia mCherry: inhibitors of vaccinia virus infection (mCherry reporter signal); Vaccinia virus mCherry reporter infection, fluorescence; about a quarter of the inactives have no number; Potency, µM (series often up to 36.5 µM), for inactives: at the top dose activity change, negative = inhibition, usual class: inhibitors; hit rate 0.63% among 310,000; AID 720579; active = well fitted inhibition curve with a large enough effect; inconclusive = small, poorly fitted or top-dose-only effect; inactive = no such curve, though single readings can be large or run the other way; tested in A549 cells; note: nearly all actives have a fitted effect of over 35% in size; inactives centre near -10
VACV Venus inh: vaccinia inhibition (Venus reporter) | Potency, µM (highest dose often 36.5 µM), for the others: at the highest dose activity change, negative = inhibition, usual class: inhibitors | AID 720580 | Vaccinia virus Venus reporter expression, fluorescence | hit rate 0.46% among 330,000; active means well fitted inhibition curve with a large enough effect; inconclusive means small, poorly fitted or top-dose-only effect; inactive means no such curve, though single readings can be large or run the other way; tested in A549 cells; note: nearly all actives have a fitted effect of over 30% in size; inactives centre near -10
* hit, by the source's call; i = inactive; u = inconclusive; x = no result given; & = joins results of further samples; [ ] = remark or other dose. % is set by controls: 0 for no effect and ±100 for the full control effect; potency is the fitted concentration of half-maximal effect.

A first look (4 entries):
SMILES | Vaccinia mCherry | VACV Venus inh
COc1ccccc1CCC(=O)NNC(=O)c1ccccc1 | i | 0%
CSc1ncc(CN2CCCCC2C(=O)Nc2ccc(Oc3ccccc3)nc2)cn1 (centres undefined) | -14% | -12%
COc1ccc(CNC(=O)C2CCN(S(=O)(=O)c3ccc4c(c3)NC(=O)CO4)CC2)cc1 | -5% | -23%
O=C(CSc1nnc(NC(=O)c2ccccc2Cl)s1)NC1CC1 | i | -9%

This part in full, from the start:
SMILES | Vaccinia mCherry | VACV Venus inh
COc1ccccc1CCC(=O)NNC(=O)c1ccccc1 | i | 0%
CSc1ncc(CN2CCCCC2C(=O)Nc2ccc(Oc3ccccc3)nc2)cn1 (centres undefined) | -14% | -12%
COc1ccc(CNC(=O)C2CCN(S(=O)(=O)c3ccc4c(c3)NC(=O)CO4)CC2)cc1 | -5% | -23%
O=C(CSc1nnc(NC(=O)c2ccccc2Cl)s1)NC1CC1 | i | -9%
CCNc1ccc(N=Nc2c(C)n(C)n(-c3ccccc3)c2=O)cc1 | -12% | -15%
Cc1ccc(C=O)c([B-](F)(F)F)c1 | -2% | -13%
CC1(C)Cc2c(sc3nc4n(c(=N)c23)CCC4)CO1 | i | -13%
Cc1c(C(=O)N2CCCCC2)c(S(=O)(=O)N2CCc3ccccc32)c(C)n1C | -13% | -6%
CCCCCC(=O)N=Nc1c(O)[nH]c2ccc([N+](=O)[O-])cc12 | -23% | -5%
COc1ccc(Cl)cc1NC(=O)c1sc(-n2nc(C)c(Cc3ccccc3)c2C)nc1C | -12% | -10%
O=C(Nc1ccnn1C1CCN(Cc2cccc(OCCO)c2)CC1)C1CCCC1 | -12% | 2%
COc1ccc(N2CCN(C(=O)c3cccc(S(=O)(=O)N4CCc5ccccc54)c3)CC2)cc1 | u | -27%
COC(=O)c1cc(C(=O)c2cc(Br)ccc2O)coc1=N | -28% | -16%
CCOc1ccccc1NC(=O)C1(S(=O)(=O)c2ccc(Cl)cc2)CC1 | -15% | 7%
c1ccc(COC2CCCN(Cc3nc(Cc4ccccc4)no3)C2)cc1 (centres undefined) | -19% | -12%
O=C1CC2(CCN(C(=O)c3ccc([N+](=O)[O-])cc3)CC2)Oc2ccccc21 | -18% | -15%
Cc1ccc2[nH]c(=O)c(CN(CCO)Cc3nnnn3Cc3ccco3)cc2c1 | 12% | -13%
CCOC(=O)c1[nH]c(C)c(C(=O)N2CCOCC2)c1C | 1% | 2%
Cc1ccc2nc(-c3ccc(NC(=O)CCS(=O)(=O)c4ccccc4)cc3)sc2c1 | -27% | -22%
Cc1cccc(OCC(O)Cn2c(=N)n(CCN3CCOCC3)c3ccccc32)c1 (centres undefined) | -15% | -11%
COc1ccc(CN(C)CC(=O)Nc2c(C)cccc2C)c(OC)c1 | -7% | -11%
CCN(Cc1nc(-c2ccc(OC)cc2)no1)C(=O)c1ccoc1C | i | -17%
CSc1ncc(C(=O)Nc2ccc(F)cc2F)c(-c2ccccc2)n1 | -8% | -5%
CCN(CC)C(=O)c1nc[nH]c1C(=O)O[C@@H](C)c1ccccc1 | i | -9%
O=C(CNC(=O)c1ccccc1)N=Nc1c(O)[nH]c2ccc(Br)cc12 | -15% | -4%
COC(=O)C1=C(c2cc3ccccc3s2)C[C@@H]2CC[C@H]1N2C(=O)NCc1ccc(F)cc1 | -18% | u
COc1cccc(CNC(=O)C2CCCN(S(=O)(=O)c3ccc4c(c3)C(C)(C)C(=O)N4C)C2)c1 (centres undefined) | i | -15%
CC(=O)Nc1ccc(NC(=O)CN(c2ccc(C34CC5CC(CC(C5)C3)C4)cc2)S(C)(=O)=O)cc1 | u | u
Cn1c(NC(=O)c2ccccc2NC(=O)C(C)(C)C)nc2ccccc21 | u | u
CCOC(=O)C1(Cc2cccc(OC)c2)CCCN(C(=O)c2cc(CC(C)C)[nH]n2)C1 (centres undefined) | -4% | -19%
Nc1nc(NCc2ccco2)nc(Nc2cccc(F)c2)c1[N+](=O)[O-] | -10%[7.34 µM] | -8%[7.34 µM]
COC(=O)c1ccc(-n2nnnc2SCc2nn[nH]n2)cc1 | i | -9%
COc1ccccc1CNS(=O)(=O)c1cc(-c2cc(C)no2)ccc1C | -11% | -2%
O=C(CCn1c(=O)oc2ccccc21)Nc1ccccc1 | 11% | 5%
COCCNC(=O)C1(C)CCCN(Cc2sc(C)nc2C)C1 (centres undefined) | 40%[activator] | 1%
C/C(=N\NC(=O)Cc1ccccc1[N+](=O)[O-])c1cccnc1 | -6% | -11%
Cc1nnc(SCC(=O)N2N=C(c3ccc(Cl)cc3)CC2c2ccco2)[nH]c1=O (centres undefined) | -6% | 2%
COCCn1c(=N)c(C(=O)NCCc2ccccc2)cc2c(=O)n3cccc(C)c3nc21 | -12% | 0%
C[C@@H]1O[C@@H](OCCC(=O)O)[C@H](O)C[C@H]1O | 0% | -8%
Cc1cccc(N(Cc2ccccc2)C(=O)c2cc(S(=O)(=O)N3CCOCC3)ccc2F)c1 | -19% | -8%
CC(C)C(=O)OCc1cc(=O)n2nc(C3CC3)sc2n1 | -7% | -6%
Cc1cc(=O)[nH]c(SCC(=O)NCc2ccc3c(c2)OCO3)n1 | -6% | -14%
Cc1cc(C(F)(F)F)n2nc(-c3cccs3)cc2n1 | -6% | -7%
Cc1cc(OCCCn2ccnc2)ccc1C(C)C | -19% | -12%
Cc1ccc(Cc2nc3ccccc3nc2SCC(=O)N2CCC(C)CC2)cc1 | -2% | -5%
Nc1ccc(CC2SC(=O)NC2=O)cc1 (centres undefined) | -13% | -6%
Cc1[nH]nc(N=CC2=C(O)CC(C)(C)CC2=O)c1-c1ccccc1 | -4% | 5%
O=C(O)CC/C(=N\Nc1ccc([N+](=O)[O-])cc1S(=O)(=O)N1CCOCC1)c1cccs1 | 15% | -1%
O=C(Nc1cccnc1)c1cc(Br)c(Br)s1 | -1% | -2%
CCn1cc(S(=O)(=O)c2ccccc2)c(=O)c2cc(F)c(N3CCN(C)CC3)cc21 | i[7.34 µM] | -6%[7.34 µM]
O=C(NCCC1CC1(Cl)Cl)c1ccc([N+](=O)[O-])cc1 (centres undefined) | u | -22%
O=C(CSc1nc2ccccc2s1)NCCCN1CCOCC1 | -10% | -5%
Cc1cc(C)cc(N2CCCn3c2nc2c3c(=O)[nH]c(=O)n2C)c1 | u | u
Cc1ccc(N(Cc2cccs2)C(=O)c2ccccc2Cl)cc1 | -5% | 5%
Cc1occc1-c1nnc(SCC(=O)Nc2ccccc2)n1C(C)c1ccccc1 (centres undefined) | -26% | -13%
Cc1ccc(C(=O)N2c3ccccc3CC2C)o1 (centres undefined) | -19% | -20%
CCOC(=O)C1CCN(c2c(NCc3ccc(C(=O)NCCC(C)C)cc3)c(=O)c2=O)CC1 | x | 10%
COc1ccc(CCNC(=O)c2ccccc2-c2ccccc2C(=O)O)cc1OC | i | -9%
CC(=O)OC[C@@H]1CN(Cc2ccccc2)C[C@H](n2cnc3c(NC4CCC4)ncnc32)O1 | -8% | 4%
CCOc1ccc2[nH]c3nc(SCC(=O)NC4CC4)nnc3c2c1 | -14% | 11%
(further entries)
SMILES | Vaccinia mCherry | VACV Venus inh
CCOC(=O)Cn1cnc(C)c1 | -16% | -9%
COc1ccccc1Nc1nnc(SCc2nnc(-c3cc(OC)c(OC)c(OC)c3)o2)s1 | -4% | -18%
O=C1NC(=O)/C(=C\c2ccc(OCc3cccc(C(=O)O)c3)c(Cl)c2)N1 | -5% | -1%
Cc1cc(C)nc(NC(=O)c2ccc(C)c([N+](=O)[O-])c2)n1 | x | -25%
Oc1ccc(Cl)cc1CNCc1ccc(Cl)nc1 | -12% | -19%
COc1ccc(CNC(=O)CCCn2nc(C)n3ccnc3c2=O)cc1 | i | -3%
CCN(CC(=O)NCc1cccs1)C(=O)CN(C)S(=O)(=O)c1ccc(C)cc1 | -7% | -16%
Cc1ccc(N2C(=O)c3ccc(C(=O)N4CCN(Cc5ccccc5)CC4)cc3C2=O)cc1 | -4% | -3%
Cc1ccc2cccc(NC(=S)NC(=O)c3ccnn3C)c2n1 | -22% | -19%
CC(C)(C)n1nc2c(c1NC(=O)CCCc1ccccc1)CS(=O)C2 (centres undefined) | i | -11%
CCN1CCN(C(=O)c2cc(COc3ccc(F)cc3F)on2)[C@@H](C)C1=O | -12% | -12%
CC12C(=O)N(c3ccccn3)C(=O)C1C1C=CC2C1 (centres undefined) | -8% | -4%
O=C(c1cc(C2CC2)nn1-c1ccccc1)N1CCN(S(=O)(=O)c2ccc(F)cc2)CC1 | -13% | -19%
C#CC[N+]1(CC#Cc2ccc(C)cc2)CCCCC1 | i | -2%
CCc1c(O)cc2n(c1=O)-c1ccccc1C2(C)C | -12% | -1%

3 entries already listed, ordered by formula weight, highest first.
SMILES | Vaccinia mCherry | VACV Venus inh
Cc1ccc2cccc(NC(=S)NC(=O)c3ccnn3C)c2n1 | -22% | -19%
CCc1c(O)cc2n(c1=O)-c1ccccc1C2(C)C | -12% | -1%
C#CC[N+]1(CC#Cc2ccc(C)cc2)CCCCC1 | i | -2%

(continued)
SMILES | Vaccinia mCherry | VACV Venus inh
Cc1ccc(C)c(NC(=O)CSc2nc(-c3ccccc3Cl)nc3c2Cc2c(CO)cnc(C)c2O3)c1 | -3% | -1%
COc1ccc(CCNC(=O)c2cc(S(=O)(=O)N3CCCCC3)c[nH]2)cc1OC | -3% | -24%
O=C(NCC1(N2CCOCC2)CCCC1)c1cnn(-c2nccc(-c3cccs3)n2)c1C1CC1 | -11% | 10%
O=C(CNC(=O)c1cccc(Br)c1)N/N=C/c1cccnc1 | -13% | -6%
COc1cc(O)ccc1C(C)=O | i | 0%
CCS(=O)(=O)N1CCC(C(=O)NCc2ccco2)CC1 | -9% | -4%
CCOC(=O)N1CCN(S(=O)(=O)c2ccc3[nH]c(=O)sc3c2)CC1 | x | 10%
Cn1c(=O)n(C)c2cc(S(=O)(=O)Nc3ccccc3C(=O)O)ccc21 | -10% | -3%&-4%
CCOc1ccccc1NC(=O)Cn1c(=O)n(Cc2ccco2)c(=O)c2sc3ccccc3c21 | -3% | -5%
COc1ccc(/C=C/C(=O)c2ccoc2)cc1 | i[1.46 µM] | -8%
COC(=O)c1ccc(CSc2nc3c(cnn3-c3ccc(C)cc3)c(=O)[nH]2)o1 | i | -14%
COc1cc(OC)cc(N(C(=O)c2ccco2)C(C(=O)NC2CCCC2)c2ccc(N3CCOCC3)cc2)c1 (centres undefined) | i | -8%
Cn1nccc1C(=O)Oc1ccc(/C=N/NC(=O)c2ccccc2O)cc1 | u | -14%
O=C(O)C1=C(C(=O)O)C2CCC1C2 | -21% | 0%
COc1ccccc1CNC(=O)CN1C(=O)CCc2cc(S(=O)(=O)N3CCOCC3)ccc21 | -4% | 2%
COc1cc2c(cc1O)CC[n+]1cc3c(OC)c(OC)ccc3cc1-2 | -2% | 1%
O=C(CNS(=O)(=O)c1ccc([N+](=O)[O-])cc1)N/N=C/c1ccc(O)cc1O | -10% | -10%
Cc1ccc(F)c(S(=O)(=O)NC(=O)C2(C)CCN2C(=O)c2ccc(C3CCCCC3)cc2)c1 (centres undefined) | -7% | -6%
CCCNC(=O)c1ccc(N2CCC3(CC2)CC(c2ccccc2)=NO3)c(NC(=O)c2ccc(Br)cc2)c1 | i | -27%
CCc1ccc(NC(=O)c2cnn3ccccc23)cc1 | -21% | -13%
COc1ccc(C(=O)CN2C(=O)NC3(CCCCCC3)C2=O)cc1 | -15% | -16%
Cc1ccc(-c2nc(C)sc2CC(=O)OCC(=O)Nc2c(F)cccc2F)cc1 | -10% | -4%
CCn1c(CN2CCC(C)CC2)nc2cc(S(=O)(=O)N3CCCCC3)ccc21 | 0% | -29%
CC(C)c1nc(SCC(=O)N2CCCC2)c2c(=O)n(C)c(=O)n(C)c2n1 | -11% | -15%
C1CCCCCC2(CCCCC1)OCC(CN1CCOCC1)O2 (centres undefined) | i | -4%
CCCCCc1nc2c(C#N)c(-c3ccc(Cl)cc3)ccn2n1 | -22% | -5%
O=C(COC(=O)COc1cccc(C(F)(F)F)c1)NC1CCS(=O)(=O)C1 (centres undefined) | 0% | -11%
COc1ccc(CNC(=O)/C=C/C(=O)O)cc1OC | -14% | -3%
Cc1ccc(SCCC(=O)Nc2ccccc2C(=O)NC(C)C)cc1 | -4% | -19%
CC(C)C1COC(c2cccn2Cc2ccccc2Cl)=N1 (centres undefined) | i | -4%

Next part; it opens with the two that closed the last part.
SMILES | Vaccinia mCherry | VACV Venus inh
Cc1ccc(SCCC(=O)Nc2ccccc2C(=O)NC(C)C)cc1 | -4% | -19%
CC(C)C1COC(c2cccn2Cc2ccccc2Cl)=N1 (centres undefined) | i | -4%
O=C(CSc1nnnn1-c1ccc(O)cc1)Nc1cccc(S(=O)(=O)N2CCCC2)c1 | x | -10%
CCOc1ccc(/C=N/NC(=S)Nc2c(C)cccc2C)cc1 | -12% | u
COc1ccc(OC)c(NC(=O)C2CCCN(S(=O)(=O)c3c(C)noc3C)C2)c1 (centres undefined) | -21% | -15%
Cc1cccc(OC(=O)c2nc(SCc3ccccc3F)ncc2Cl)c1 | -16% | -4%
COc1ccc(C(=O)C2CCCN(Cc3cccn3-c3ccccn3)C2)c(OC)c1 (centres undefined) | u | -13%
COc1ccc(C(C(=O)NC2CCCC2)N(CCCO)C(=O)c2snc(C(N)=O)c2N)cc1 (centres undefined) | i | -16%
O=S(c1ccsc1)c1ccsc1 | x | -9%
CCN(CC)C(=O)COC(=O)C1=NN(c2cc(C)ccc2C)C(=O)CC1 | i | -8%
Nc1c(C(=O)Nc2ccccc2)nnn1-c1ccc2c(c1)OCCO2 | -9% | -4%
O=C(CSc1ccc(Cl)cc1)NNC(=O)c1cccnc1 | -3% | -13%
O=C(O)c1cc(-c2ccco2)nn1-c1cccc(Cl)c1 | i | -1%

This is a random part of the collection. Share with any hit: about 0.82%.
